High-throughput results from PubChem BioAssay.
VDR inhibitor – vitamin D3 receptor (human) inhibition; VDR-SRC2-3 peptide fluorescence polarization, 2 h; P11473; Potency, µM, for the others: max response, negative = inhibition, actives largely listed as inhibitors; 400,000 compounds, 0.93% hits; AID 504847; active means well fitted inhibition curve with a large enough effect; inconclusive means small, poorly fitted or top-dose-only effect, or another doubt; inactive means no such curve, though single readings can be large or run the other way; further: series mostly up to about 120 µM
Target sequence (P11473 whole entry, looked up): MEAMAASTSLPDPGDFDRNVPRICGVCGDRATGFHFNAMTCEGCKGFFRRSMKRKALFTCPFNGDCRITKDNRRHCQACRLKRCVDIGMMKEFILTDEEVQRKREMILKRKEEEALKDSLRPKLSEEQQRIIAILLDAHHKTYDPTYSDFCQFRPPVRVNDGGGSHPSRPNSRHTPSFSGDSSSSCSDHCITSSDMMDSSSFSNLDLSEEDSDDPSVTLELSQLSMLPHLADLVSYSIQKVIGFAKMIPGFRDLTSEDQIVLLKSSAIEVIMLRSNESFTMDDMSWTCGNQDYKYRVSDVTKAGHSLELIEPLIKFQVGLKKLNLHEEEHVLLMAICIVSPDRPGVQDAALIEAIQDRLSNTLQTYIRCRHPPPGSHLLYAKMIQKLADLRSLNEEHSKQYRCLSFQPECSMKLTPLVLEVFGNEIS
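FP read-out; VDR + SRC2-3 coactivator peptide; 23 nl compound by pintool; 2 h RT incubation; reagents held at 4 deg C, protected from light.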
The depositor's hits bear a star. On the % scale 0 is the no-effect control and ±100 the full control effect; potency means the concentration at half of the fitted maximal effect. An excerpt; count on the stated rates, not on these rows.

How did CN(C)N1C(N)=C(C#N)C(c2cccc3ccccc23)C2=C1CC(c1ccccc1)CC2=O (configuration not stated) do in these assays?
VDR inhibitor: -24.1%

How did O=C(ON=C1CCN(c2ccc([N+](=O)[O-])cc2)CC1)c1ccccc1 do in these assays?
VDR inhibitor: 20.7%

What do the screens show for `COc1ccc(NC(=O)c2sc3nc4c(cc3c2N)CN(Cc2ccccc2)CC4)cc1`?
VDR inhibitor: -4.4%

Results for OCC[C@H]1C[C@@H](O)[C@H](O)[C@]2(CCCCO2)O1 ?
VDR inhibitor: -11.8%

How did CCOC(=O)c1cc(C(=O)n2cc(Cl)cn2)nn1C do in these assays?
VDR inhibitor: -28.3%

Results for COc1cccc(OCCOc2cccc(/C=N/n3cnnc3)c2)c1 ?
VDR inhibitor: -11.8%

How did CCOC(=O)C1CCN(C(=O)Cc2ccccc2OC)CC1 do in these assays?
VDR inhibitor: -2.0%

What do the screens show for `O=C(NN=C(Cc1ccccc1)Cc1ccccc1)c1ccccc1F`?
VDR inhibitor: -14.2%

How did COc1ccc(-n2nc(C(=O)NCC(=O)O)c3ccccc3c2=O)cc1 do in these assays?
VDR inhibitor: -0.4%

How did Cc1oc(/C=N/NC(=O)CN(c2ccccc2Cl)S(C)(=O)=O)cc1Br do in these assays?
VDR inhibitor: -2.8%

How did CCCOc1cccc(-c2cc(C(=O)N/N=C/c3ccccn3)c3ccccc3n2)c1 do in these assays?
VDR inhibitor: -17.0%

How did Cc1cc(CSc2ccccc2)ccc1NC(=O)c1ccc(Br)cc1 do in these assays?
VDR inhibitor: -17.6%

Results for COc1cccc(C(=O)Nc2ccc(-c3cc(C(F)(F)F)nn3-c3ccccc3)cc2)c1 ?
VDR inhibitor: 14.9%

How did O=C(COc1ccc2ccccc2c1)Nc1nc2ccccc2[nH]1 do in these assays?
VDR inhibitor: -3.5%

Results for Cc1nnc(SCC(=O)Nc2ccc(Br)cc2)n(N)c1=O ?
VDR inhibitor: -1.3%

What do the screens show for `CC(=O)N1CCN(C(=O)c2cc(=O)c3ccccc3o2)CC1`?
VDR inhibitor: -6.5%

What do the screens show for `CCC(C)N(C(=O)c1csnn1)C(C(=O)NC(C)(C)C)c1ccccc1` (configuration not stated)?
VDR inhibitor: -9.7%

What do the screens show for `COc1ccc(OCc2cc(C(=O)NC3Cc4ccccc4C3)no2)c(Cl)c1`?
VDR inhibitor: 20.1%

What do the screens show for `COC(=O)c1ccccc1NC(=O)c1cc2ncc(Br)cn2n1`?
VDR inhibitor: -8.8%

Results for O=C(O)C1Nc2ccccc2C2C=CCC12 (configuration not stated) ?
VDR inhibitor: inconclusive

Molecules above that contain a Cl atom:
How did CCOC(=O)c1cc(C(=O)n2cc(Cl)cn2)nn1C do in these assays?
VDR inhibitor: -28.3%

How did Cc1oc(/C=N/NC(=O)CN(c2ccccc2Cl)S(C)(=O)=O)cc1Br do in these assays?
VDR inhibitor: -2.8%

What do the screens show for `COc1ccc(OCc2cc(C(=O)NC3Cc4ccccc4C3)no2)c(Cl)c1`?
VDR inhibitor: 20.1%

(further entries)
How did COc1ccccc1NC(=O)c1ccc(COc2ccccc2OC)cc1 do in these assays?
VDR inhibitor: 2.5%

What do the screens show for `COC(=O)c1cc(Br)c(=O)n(CCc2ccccc2)c1`?
VDR inhibitor: 9.1%

Results for CCn1c(CNC(=O)c2cccc(C)c2)nnc1SCC(=O)NC1CCCCC1C (configuration not stated) ?
VDR inhibitor: -7.1%

How did Cc1cc(C(=O)NC2CC(C)(C)Cc3c2cnn3-c2ccccc2C)c(C)o1 (configuration not stated) do in these assays?
VDR inhibitor: -20.9%

How did Cc1nc2ccccc2nc1N1CCCCC1 do in these assays?
VDR inhibitor: -8.7%

How did CC(C)c1ccc(NC(=O)[C@@H]2CCC(=O)N2C2OC(=O)c3ccccc32)cc1 (some centres not stated) do in these assays?
VDR inhibitor: -20.2%

What do the screens show for `COc1cccc(/C=N/NC(=O)C(=O)NCc2cccnc2)c1`?
VDR inhibitor: 13.4%

Results for Cc1cccc(C(=O)N2CCCCCC2)c1 ?
VDR inhibitor: 0.0%

How did c1ccc(N2CCN(Cc3ccc4c(c3)OCO4)CC2)nc1 do in these assays?
VDR inhibitor: -7.2%

Results for COc1cc(NC(=O)C2CC(c3c(F)cccc3Cl)=NO2)c(OC)cc1Cl (configuration not stated) ?
VDR inhibitor: 1.7%

Results for COc1ccc(C/C(C)=N/NC(=S)Nc2ccccc2)cc1 ?
VDR inhibitor: -14.3%

What do the screens show for `CC[n+]1oc(-c2ccccc2)cc1C`?
VDR inhibitor: 0.6%

How did CCOC(=O)C(C)c1nc2ccccc2[nH]c1=O (configuration not stated) do in these assays?
VDR inhibitor: -2.1%

What do the screens show for `COC(=O)c1cc(=O)n(CCc2ccccc2)c(=Nc2ccc(F)cc2)s1`?
VDR inhibitor: -0.8%

Results for c1ccn2cc(-c3ccc4c(c3)OCCO4)nc2c1 ?
VDR inhibitor: 13.4%

What do the screens show for `COc1ccccc1-c1nnc(NC(=O)c2ccccc2F)o1`?
VDR inhibitor: 10.8%

What do the screens show for `COc1ccc(S(=O)(=O)N(CCO)c2ccccc2CN(C)C/C=C/c2ccc(Cl)cc2)cc1`?
VDR inhibitor: -1.8%

How did CCCCN1C(=O)C2ON(c3ccccc3C)C(c3ccco3)C2C1=O (configuration not stated) do in these assays?
VDR inhibitor: -4.5%

How did CC(C)Cn1c(=S)[nH]c2cc(Cl)ccc21 do in these assays?
VDR inhibitor: -17.3%

What do the screens show for `COc1ccc2cc1Oc1ccc(cc1)CC1c3cc(c(OC)cc3CCN1C)Oc1c(OC)c(OC)c(OC)c3c1C(C2)N(C)CC3` (configuration not stated)?
VDR inhibitor: 44.7µM*

What do the screens show for `COc1ccc(C2=NOC(C(=O)Nc3ccc4c(c3)OCCO4)C2)cc1OC` (configuration not stated)?
VDR inhibitor: -3.4%

How did O/N=C(/CCc1ccccc1)C1(O)CCCCC1 do in these assays?
VDR inhibitor: -3.3%

How did CN1C(=O)C(C)(C)c2cc(S(=O)(=O)N3CCCC(C(=O)NCc4ccc(F)cc4)C3)ccc21 (configuration not stated) do in these assays?
VDR inhibitor: -5.9%

How did Cc1cc(Cl)ccc1OC(C)C(=O)NC(C)C1CCCO1 (configuration not stated) do in these assays?
VDR inhibitor: -2.9%

What do the screens show for `Cc1cccn2c(=O)c3cc(C(=O)NC(C)c4ccccc4)c(=N)n(CCCn4ccnc4)c3nc12` (configuration not stated)?
VDR inhibitor: -8.0%

What do the screens show for `CCS(=O)(=O)N1Cc2ccccc2CC1C(=O)Nc1ccc(OC)c(OC)c1` (configuration not stated)?
VDR inhibitor: 8.3%

How did CCNC(=O)CN(c1ccccc1)S(=O)(=O)c1ccc(Cl)cc1 do in these assays?
VDR inhibitor: -8.1%

What do the screens show for `Cc1ccsc1-c1ccnc(-n2cccc2)n1`?
VDR inhibitor: inconclusive

What do the screens show for `N/C(=N\OC(=O)c1cccc2ccccc12)c1ccc(Br)cc1`?
VDR inhibitor: 6.4%

Results for Cc1ccc(S(=O)(=O)N2CCN(C(=O)CSc3ccc(F)cc3)CC2)cc1 ?
VDR inhibitor: -8.6%

What do the screens show for `CCN(Cc1nc2cc(Cl)ccc2c(=O)[nH]1)C(=O)COc1ccccc1Cc1ccccc1`?
VDR inhibitor: 5.5%

What do the screens show for `O=C(Nc1ccc(S(=O)(=O)N2CCCc3ccccc32)cc1)C1CCCO1` (configuration not stated)?
VDR inhibitor: 6.4%

What do the screens show for `O=C(NNc1ccc(F)cc1F)c1c(F)cccc1Cl`?
VDR inhibitor: -13.0%

Results for CCOc1cccc(C2C=C(c3ccc4c(c3)OCO4)NC(c3ccccc3F)N2)c1O (configuration not stated) ?
VDR inhibitor: -3.5%

What do the screens show for `Cc1cccc(Cc2cnc(NC(=O)C3Cc4ccc(C)cc4C(=O)O3)s2)c1` (configuration not stated)?
VDR inhibitor: 2.4%

How did CN(CC(=O)Nc1ccccc1C(F)(F)F)C(=O)C1CC1 do in these assays?
VDR inhibitor: -14.4%

Results for COc1cc2ccccc2cc1C(=O)Nc1cc(-c2nc3ccccc3o2)ccc1C ?
VDR inhibitor: -3.5%

Results for CN(C(=O)c1cccnc1)c1nnc(-c2cnccn2)s1 ?
VDR inhibitor: -7.4%

Results for CC(=O)Nc1ccc(NC(=O)c2cc[n+]([O-])cc2)cc1 ?
VDR inhibitor: -3.0%

What do the screens show for `CC1Cc2cc(/C(O)=C3/C(=O)C(=O)N(CCN4CCOCC4)C3c3ccc(N(C)C)cc3)ccc2O1` (configuration not stated)?
VDR inhibitor: -2.4%

The final 4 entries of the section above come first, to join the parts:
Results for COc1cc2ccccc2cc1C(=O)Nc1cc(-c2nc3ccccc3o2)ccc1C ?
VDR inhibitor: -3.5%

Results for CN(C(=O)c1cccnc1)c1nnc(-c2cnccn2)s1 ?
VDR inhibitor: -7.4%

Results for CC(=O)Nc1ccc(NC(=O)c2cc[n+]([O-])cc2)cc1 ?
VDR inhibitor: -3.0%

What do the screens show for `CC1Cc2cc(/C(O)=C3/C(=O)C(=O)N(CCN4CCOCC4)C3c3ccc(N(C)C)cc3)ccc2O1` (configuration not stated)?
VDR inhibitor: -2.4%

How did CSCc1cc(N(C)C)nc(SCc2ccc(Cl)cc2Cl)n1 do in these assays?
VDR inhibitor: 6.1%

How did O=C1c2cccc3cccc(c23)C(=O)N1CCCSc1ncn[nH]1 do in these assays?
VDR inhibitor: -8.5%

What do the screens show for `CCN=C1SC(CC(=O)Nc2ccc(C)cc2)C(=O)N1CC` (configuration not stated)?
VDR inhibitor: 4.8%

How did Cc1cc(NC(=O)CN2C(=O)NC(CCc3ccccc3)C2=O)no1 (configuration not stated) do in these assays?
VDR inhibitor: 2.8%

What do the screens show for `CCCN(CCC)C(=O)Cn1c(=O)n(-c2cccc(C)c2)c(=O)c2c1c1cc(OC)ccc1n2C`?
VDR inhibitor: -17.9%

How did CCc1nnc(NC(=O)CSc2nc(C3CCCCC3)nc3ccccc23)s1 do in these assays?
VDR inhibitor: 3.7%

Results for O=[N+]([O-])c1ccc(-n2nncc2-c2ccccc2)cc1 ?
VDR inhibitor: -15.9%

How did CCOc1cc(C(=O)OCC(=O)N(C)c2ccccc2)cc(OCC)c1OCC do in these assays?
VDR inhibitor: 1.7%

What do the screens show for `COc1ccccc1CCNCc1ccc(OC)c(OCc2ccccc2)c1`?
VDR inhibitor: 25.6%

Results for CC(C)CCNC(=O)N1CCN(S(=O)(=O)c2ccc3c(ccn3C)c2)CC1 ?
VDR inhibitor: 7.0%

Results for Cc1ccc(NC(=O)c2ncn(CCCNCc3ccc4c(c3)OCO4)n2)cc1C ?
VDR inhibitor: -14.4%

Results for COc1cc2cc(CN(CCc3cccc(C)c3)C(=S)NCCCN3CCOCC3)c(=O)[nH]c2cc1OC ?
VDR inhibitor: -21.7%

Results for Cc1cc(C)nc(NC(=NCCc2c[nH]c3ccccc23)NC(=O)Nc2cccc([N+](=O)[O-])c2)n1 ?
VDR inhibitor: 8.6%

How did CCN=C1SC(C(=O)Nc2cc(Cl)cc(Cl)c2)CC(=O)N1CC (configuration not stated) do in these assays?
VDR inhibitor: 0.9%

Results for COC(=O)c1ccc(CSc2nnc(N)s2)o1 ?
VDR inhibitor: 4.9%

Results for CC(=O)c1cccc(NC(=O)C(Cc2ccccc2)NS(=O)(=O)c2ccc(Br)s2)c1 (configuration not stated) ?
VDR inhibitor: -22.5%

What do the screens show for `Cc1ccc(C(=O)OCC(=O)NCC(F)(F)F)cc1C`?
VDR inhibitor: 4.7%

What do the screens show for `COc1ccc(C2/C=C\CN(C(=O)c3ccc(C)cc3)C(Cc3ccccc3)C(=O)N2Cc2ccc(F)cc2)cc1` (configuration not stated)?
VDR inhibitor: 3.1%

What do the screens show for `COc1cccc(CNC(=O)C2CCCN(c3nnc(-n4c(C)ccc4C)s3)C2)c1` (configuration not stated)?
VDR inhibitor: 4.0%

How did CC(c1ccncc1)C(C)c1ccncc1 (configuration not stated) do in these assays?
VDR inhibitor: -16.3%

Results for Cc1cc(C(=O)NNC(=O)c2c(-c3c(Cl)cccc3Cl)noc2C)no1 ?
VDR inhibitor: -4.4%

Results for Cc1cc(C)c(C(=O)Cn2nc(C)c([N+](=O)[O-])c2C)cc1C ?
VDR inhibitor: -9.8%

Results for COC(=O)Nc1ccc(S(=O)(=O)N2CCCCC2)cc1 ?
VDR inhibitor: 14.9%

What do the screens show for `COCCNC(=O)c1ccc(CS(=O)(=O)c2cccc(C(F)(F)F)c2)o1`?
VDR inhibitor: 1.5%

What do the screens show for `Cc1ccc(OCC(=O)Nc2ccc(N3CCN(C(=O)c4ccco4)CC3)cc2)cc1`?
VDR inhibitor: 14.2%

What do the screens show for `O=C(C/C=N/OCc1ccc(Cl)cc1Cl)c1ccc(Cl)cc1`?
VDR inhibitor: -2.5%

What do the screens show for `c1ccc(Oc2ccc(-c3ccn[nH]3)cc2)cc1`?
VDR inhibitor: 1.1%

How did O=C(/C=C/c1ccc(Cl)cc1)Nc1cc(S(=O)(=O)N2CCOCC2)ccc1N1CCOCC1 do in these assays?
VDR inhibitor: -6.7%

How did O=C(Nc1cccc(C(=O)Nc2cccc(Br)c2)c1)c1ccccc1 do in these assays?
VDR inhibitor: 4.3%

How did Nc1cc2c(cc1Cl)-c1ccccc1C2 do in these assays?
VDR inhibitor: -19.2%

Results for Cc1nnc(NC(=O)C2CCCN2S(=O)(=O)c2ccc(Cl)cc2)s1 (configuration not stated) ?
VDR inhibitor: -13.7%

How did C[C@H](N)[C@H](O)c1cccc(O)c1 do in these assays?
VDR inhibitor: 6.9%

Nothing new here: an excerpt of the list.
How did Nc1cc2c(cc1Cl)-c1ccccc1C2 do in these assays?
VDR inhibitor: -19.2%

Results for Cc1nnc(NC(=O)C2CCCN2S(=O)(=O)c2ccc(Cl)cc2)s1 (configuration not stated) ?
VDR inhibitor: -13.7%

How did C[C@H](N)[C@H](O)c1cccc(O)c1 do in these assays?
VDR inhibitor: 6.9%
